High-throughput results from PubChem.
Sa ugtP lethal – growth inhibition of S. aureus ugtP deletion strain; S. aureus RN4220 ugtP deletion, OD600 growth, 16 h; some inactives read as strong as hits; AID 1259309; growth inhibition, % (no concentration beside the values); hit rate 0.54% among 330,000;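 active means z-score under -3 and OD600 up to 0.15 on both plates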;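 further: plate controls were untreated wells for no effect and antibiotic for full effect; wells of about 80 µL received 100 nL stock; the first replicate is given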
Autofluor counter – compound fluorescence in toxin protease inhibitor counterscreen. hit rate 3.1% among 360,000. compound autofluorescence counterscreen, microsphere flow cytometry; hits give high values. fluorescence intensity (concentration not given with the values). AID 624483;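 active means at least 3 SD above the mean of all compounds, about 16000 in these data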;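 further: 100 nL of 1 mM stock went into each well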
PrP UTR inh – suppresses PrP 5' UTR mRNA reporter expression; cell-based PrP 5' UTR mRNA reporter, plate reader; inhibition, % (no concentration beside the values); hit rate 0.35% among 340,000; AID 488862;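 active means every replicate at 50% or more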;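 further: 0 = median of the neutral control wells; tested in H4 reporter cells; numbers are from one replicate; inactives centre near -14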
BJeLR viability – kills HRASV12-expressing BJeLR cells; BJeLR (HRASV12) viability, CellTiter-Glo ATP luminescence, 48 h; reference of the scale not given here; inhibition, % (concentration not given with the values); hit rate 0.17% among 300,000; AID 1554;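 active means replicate mean above 50%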;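 further: 50 nL library stock added to about 25 µL; numbers are from one replicate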
RN4220 kill – S. aureus RN4220 growth inhibition | inhibition, % (no concentration beside the values) | hit rate 0.33% among 330,000 | OD600, 16 h | AID 1259311;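 active means z-score of -3 or lower and OD600 up to 0.18 on both plates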;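 further: plate controls were untreated cells for no effect and reference antibiotic for full effect; stock transfer was 100 nL into about 80 µL; one replicate is shown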
Mtb hypoxia inh – inhibitors of hypoxia-regulated fluorescent reporter in Mycobacterium tuberculosis; M. tuberculosis hypoxia-regulated fluorescent reporter, fluorescence; fluorescence inhibition, % (no concentration beside the values); hit rate 0.1% among 300,000;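 active means 35 to 45% if threefold the growth effect, above 45% if 1.5-fold the growth effect; inactive means the rest, general growth blockers included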;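 further: wells of about 50 µL received 100 nL stock; 0% = vehicle wells and 100% = reference inhibitor wells; whole bacteria with a GFP reporter of the hypoxia response; strong numbers were not always called active; many hits fall short of the cut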
Mtb hypoxia inh growth – recorded beside Mtb hypoxia inh, whose call it bears; growth inhibition, %; measured here: M. tuberculosis growth (absorbance);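 0% = vehicle and 100% = reference antibiotic; read after six days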
* hit, by the source's call; . = no result given; & = joins results of further samples.

SMILES	Sa ugtP lethal	Autofluor counter	PrP UTR inh	BJeLR viability	RN4220 kill	Mtb hypoxia inh	Mtb hypoxia inh growth
COCCCNC(=O)c1ccc([N+](=O)[O-])cc1	7.0	2455	-7.3	-18.7	2.3	4.0	8.6
COc1ccc(CNC(=O)CCNC(=O)c2ccco2)cc1OC	4.0	4334	-14.4	.	2.9	-3.1	-7.4
O=C1NC(c2ccccn2)Nc2sc3c(c21)CCC3 (stereo not drawn)	-6.3	2803	-52.3	-9.9	2.6	-0.6	11.6
O=C(Cn1nc(-c2cccc([N+](=O)[O-])c2)c2ccccc2c1=O)NCC1CCCO1 (stereo not drawn)	1.5	4138	-19.0	4.5	5.3	0.1	10.6
CCc1nnc(NC(=O)c2cccc(NC(=O)C(C)C)c2)s1	-0.5	3449	-41.9	-9.1	3.4	3.8	6.9
CCOc1ccccc1CNS(=O)(=O)c1ccc2c(c1)oc(=O)n2C	1.2	5879	7.4	1.2	3.0	.	.
Cn1cc(CNC(=O)c2ccc(OC3CCN(Cc4ccccn4)CC3)cc2)cn1	.	5089	-0.2	2.2	.	.	.
COC(=O)c1cc(-c2ccccc2)n(CC(=O)O)c1C	-2.7	4888	-9.7	.	-1.6	.	.
C#CCNC(=O)C1=CC(c2ccccc2)CC(OCCCCO)O1 (stereo not drawn)	1.8&-1.4	.	.	.	0.2&3.0	8.0&-1.5	4.0&-3.6
Cc1ccc(S(=O)(=O)N(C)c2ccc(OCC(=O)Nc3ccc(S(C)(=O)=O)cc3)cc2)cc1	2.1	2885	-11.6	.	1.7	1.6	-7.4
CC(C)N(CC#CCC1(O)c2ccccc2-c2ccccc21)CCO	-8.4	8362	-5.8	9.0	5.1	-8.6	4.3
COC(=O)c1ccc2c(=O)[nH]c(CN3c4ccccc4CC3C)nc2c1 (stereo not drawn)	-21.6	19519*	-5.2	-2.9	5.5	0.7	3.4
CCN1C(c2ccccc2)C(C)C(=O)C(C)C1c1ccccc1 (stereo not drawn)	90.6*	3446	15.2	-1.1	-13.3	2.0	-2.3
Cc1ccc(NC(=O)COC(=O)C2CSC3(C)CCC(=O)N23)cc1S(=O)(=O)N1CCOCC1 (stereo not drawn)	8.5	3414	-12.4	-4.5	2.2	11.5	3.7
Cc1ccc(NC(=O)CSc2nnc(-c3ccncc3)o2)cc1C	8.4	4335	-17.3	-5.7	1.3	6.1	1.8
CCN(CC(=O)Nc1ccc(NC(C)=O)cc1)C(=O)CCN1C(=O)c2cccc([N+](=O)[O-])c2C1=O	4.8	4385	0.4	6.7	1.2	3.0	-6.1
Cc1noc(C)c1-c1nc(CSc2ccccc2)no1	9.4	4003	-24.2	-2.4	8.7	4.1	4.0
COc1cc(C=NNC(=O)c2cccc(S(=O)(=O)N3CCOCC3)c2)cc(OC)c1O	-2.0	.	.	.	-7.2	-10.9	0.6
COC(=O)C1CN(C(=O)C(C)Oc2cc(C)ccc2C(C)C)c2ccccc2O1 (stereo not drawn)	11.0	3954	-4.3	2.4	4.1	5.9	-1.8
Cc1csc(SCC(=O)NCc2cccs2)n1	7.1	11991	-18.3	0.4	3.3	4.4	10.0

12 entries out of the list, sorted by count of non-hydrogen atoms, lowest first.
SMILES	Sa ugtP lethal	Autofluor counter	PrP UTR inh	BJeLR viability	RN4220 kill	Mtb hypoxia inh	Mtb hypoxia inh growth
Cc1csc(SCC(=O)NCc2cccs2)n1	7.1	11991	-18.3	0.4	3.3	4.4	10.0
COC(=O)c1cc(-c2ccccc2)n(CC(=O)O)c1C	-2.7	4888	-9.7	.	-1.6	.	.
CCc1nnc(NC(=O)c2cccc(NC(=O)C(C)C)c2)s1	-0.5	3449	-41.9	-9.1	3.4	3.8	6.9
CCN1C(c2ccccc2)C(C)C(=O)C(C)C1c1ccccc1 (stereo not drawn)	90.6*	3446	15.2	-1.1	-13.3	2.0	-2.3
Cc1ccc(NC(=O)CSc2nnc(-c3ccncc3)o2)cc1C	8.4	4335	-17.3	-5.7	1.3	6.1	1.8
CC(C)N(CC#CCC1(O)c2ccccc2-c2ccccc21)CCO	-8.4	8362	-5.8	9.0	5.1	-8.6	4.3
COC(=O)c1ccc2c(=O)[nH]c(CN3c4ccccc4CC3C)nc2c1 (stereo not drawn)	-21.6	19519*	-5.2	-2.9	5.5	0.7	3.4
COC(=O)C1CN(C(=O)C(C)Oc2cc(C)ccc2C(C)C)c2ccccc2O1 (stereo not drawn)	11.0	3954	-4.3	2.4	4.1	5.9	-1.8
Cn1cc(CNC(=O)c2ccc(OC3CCN(Cc4ccccn4)CC3)cc2)cn1	.	5089	-0.2	2.2	.	.	.
COc1cc(C=NNC(=O)c2cccc(S(=O)(=O)N3CCOCC3)c2)cc(OC)c1O	-2.0	.	.	.	-7.2	-10.9	0.6
Cc1ccc(NC(=O)COC(=O)C2CSC3(C)CCC(=O)N23)cc1S(=O)(=O)N1CCOCC1 (stereo not drawn)	8.5	3414	-12.4	-4.5	2.2	11.5	3.7
CCN(CC(=O)Nc1ccc(NC(C)=O)cc1)C(=O)CCN1C(=O)c2cccc([N+](=O)[O-])c2C1=O	4.8	4385	0.4	6.7	1.2	3.0	-6.1

(further entries)
SMILES	Sa ugtP lethal	Autofluor counter	PrP UTR inh	BJeLR viability	RN4220 kill	Mtb hypoxia inh	Mtb hypoxia inh growth
CC(O)(CS(=O)(=O)Cc1ccccc1)c1ccc(Cl)cc1 (stereo not drawn)	4.8	3775	-7.3	-0.8	-2.2	12.6	4.1
Cc1cc(C)c2c(n1)sc1c(=O)n(Cc3ccccc3Cl)nnc12	5.7	2759	-15.6	3.2	-0.9	.	.
COc1ccc(-c2ccc(/C=N/NC(=O)c3cccnc3)o2)c([N+](=O)[O-])c1	.	8068	0.1	4.5	.	.	.
O=C(NC(=S)Nc1cccnc1Cl)c1ccco1	-0.8	4957	-35.2	1.4	4.0	0.6	4.5
O=C(N/N=C/c1cccnc1)c1ccc(NC(=O)c2ccccc2Cl)cc1	.	3341	3.3	-5.7	.	.	.
Cc1cc(C)n(-c2ccc(C(=O)OCC(=O)NCc3ccc(Cl)cc3)cc2)n1	-3.6	2158	-25.8	-3.8	7.4	4.3	2.9
c1ccc(CNC2CN3CCC2CC3)cc1 (stereo not drawn)	-0.6	3707	-9.2	.	3.0	-2.0	0.6
CN1CCN(C(=O)c2cc(=O)c3cc(Cl)cc(Cl)c3o2)CC1	4.3	3796	-16.4	-8.1	5.8	4.0	-3.9
O=C(OCC(=O)N1CCN(C(=O)COC(=O)c2ccncc2)CC1)c1ccncc1	5.6	3540	-9.2	-4.7	3.4	5.5	4.4
O=S(=O)(c1ccc(NC(=S)NCc2ccc(F)cc2)cc1)N1CCOCC1	1.5	3939	-9.7	-4.0	0.5	-0.4	-5.3
CC1CCN(C(=O)c2[nH]cnc2C(=O)NC2CCN(C(=O)OC(C)(C)C)CC2)CC1	2.3	3181	-20.9	.	5.5	10.5	6.3
COC(=O)CN1C(=O)c2cccc3cccc1c23	3.3	4042	-16.5	-0.8	0.9	4.0	-5.5
Cc1n(CC(O)COCc2ccccc2)c2ccccc2[n+]1C (stereo not drawn)	0.0	23714*	-19.4	-15.9	1.4	4.9	13.5
NC(=O)CN1CCN(C(=O)NC2CCCCC2)CC1	0.9	5876	-1.4	-5.1	2.5	.	.
Cc1ccc(NC(=S)NC(=O)c2ccc(-c3ccc(Cl)cc3)o2)c(O)c1	-16.9	4949	-37.7	6.1	-4.3	6.4	0.5
O=C(C1CCCC1)N1CCN(S(=O)(=O)c2ccc(Cl)cc2)CC1	1.2	3791	1.3	8.6	4.0	5.5	6.1
CC1CCN(c2nc3c(c(=O)n(C)c(=O)n3C)n2CCSc2nc3ccccc3o2)CC1	-1.3	.	.	-0.2	4.2	3.5	8.7
CC(=O)O[C@@H]1C[C@H]2C(C)=C[C@H]3OC(=O)[C@@H](C)[C@H]3C[C@H]2[C@]1(C)O	.	2993	-3.4	-12.4	.	.	.
Cc1nc2c(c(=O)n1CCC1=CCCCC1)c1nc3ccccc3nc1n2/N=C/c1ccccc1	.	4547	-10.6	-2.4	.	.	.
Cc1onc(-c2c(F)cccc2Cl)c1C(=O)NC1CC1	0.1	5689	-15.2	1.3	-2.0	2.0	2.4
CCOC(=O)Cc1csc(SCC(=O)N2CCN(c3ccc(OC)cc3)CC2)n1	-5.7	10694	-23.2	-0.7	4.1	-5.4	-1.5
COc1ccc(Cl)cc1C(Nc1cccnc1)c1ccc2cccnc2c1O (stereo not drawn)	7.4	4472	-16.8	-1.5	21.2	6.9	-3.8
C/C(=N\NC(=O)Cn1nc(C)c([N+](=O)[O-])c1C)c1ccco1	.	3464	-12.6	-4.2	.	.	.
COc1ccc(S(=O)(=O)N2CC3CC(C2)c2cccc(=O)n2C3)cc1 (stereo not drawn)	1.2	4558	-21.1	1.9	7.0	2.9	10.3
C[C@@H]1CN([C@H](C)CO)C(=O)c2cc(NS(=O)(=O)c3cn(C)cn3)ccc2O[C@@H]1CN(C)S(C)(=O)=O	-5.2	3689	-28.6	.	-10.0	4.1	6.6
COc1ccc(C(=O)NC(=S)NNC(=O)CNC(=O)C2CCCCC2)cc1	13.7	3072	-20.6	12.2	8.3	8.1	2.9
CN(C)c1ccc(NC(=O)COC(=O)c2cc(Cl)ccc2[N+](=O)[O-])cc1	0.4	1739	-7.4	-8.7	4.8	10.7	5.8
CCOC(=O)c1c(NC(=O)C2C3CCC(O3)C2C(=O)O)sc(C)c1-c1ccc(F)cc1 (stereo not drawn)	4.5	2592	-8.8	-19.4	11.1	.	.
CN(C)/C=C/C(=O)c1ccn(S(=O)(=O)c2ccccc2)c1	10.0	3508	-23.3	-1.4	6.6	-3.6	0.4
COc1ccc(OC)c(Nc2nc(N)nc(CCl)n2)c1	1.9	4000	-25.4	120.5*	5.1	.	.
CCOC(=O)/C(C#N)=C/c1c(N2CCN(C)CC2)nc2ccccn2c1=O	11.6	3998	-10.3	-5.4	2.2	12.5	3.2
Cn1cnnc1SC(C(=O)c1ccccc1)c1ccccc1 (stereo not drawn)	9.6	3109	-26.2	7.9	5.2	.	.
Cc1cccc(C(=O)NN=Cc2ccc3c(c2)OCO3)n1	8.2	.	.	.	-1.4	0.7	11.8
S=C1Nc2ccccc2Sc2ccc(Cl)cc21	-14.4	8828	-25.0	-17.7	6.4	-4.6	10.6
CC(=NS(=O)(=O)c1ccc(C)cc1)N1CCN(S(=O)(=O)c2ccccc2)C1C(C)C (stereo not drawn)	-5.8	.	.	.	0.0	-1.5	11.6
Cc1ccc(C(=O)c2ccccc2C(=O)OCC(=O)NCC2CCCO2)cc1 (stereo not drawn)	2.7	2526	-26.8	5.8	6.6	3.1	0.2
CCCc1ccc(C2C3=C(CC(C)(C)CC3=O)NC3=C2C(=O)c2ccccc23)cc1 (stereo not drawn)	-14.8	11194	-5.4	1.8	-5.9	-1.8	7.9
COC(=O)c1ccc2c(=O)n(Cc3ccc4c(c3)OCO4)c(=S)[nH]c2c1	14.0	3603	-26.4	-3.1	3.4	9.3	3.1
Cc1cccn2c(=O)c3c(nc12)N1CCCCC1C1(C3)C(=O)N(C)C(=O)N(C)C1=O (stereo not drawn)	0.2	6505	.	0.9	4.0	12.7	6.4
